# Source: PubChem (National Center for Advancing Translational Sciences (NCATS))
# GLA inh pH 4.5 – alpha-galactosidase A (human) inhibition, pH 4.5; purified enzyme, 4-MU-alpha-Gal fluorescence, pH 4.5; 230,000 tested, under 10 active; P06280; activity change, negative = inhibition, % at 105 µM; inconclusive = small, poorly fitted or top-dose-only inhibition, or a rising curve; inactive = flat fitted curve, though single readings scatter; no compound was filed as active;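 also: 0% = full activity with enzyme and -100% = basal without enzyme; dose as in the result columns while the protocol names 77 µM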
# Target sequence (P06280 whole entry, looked up): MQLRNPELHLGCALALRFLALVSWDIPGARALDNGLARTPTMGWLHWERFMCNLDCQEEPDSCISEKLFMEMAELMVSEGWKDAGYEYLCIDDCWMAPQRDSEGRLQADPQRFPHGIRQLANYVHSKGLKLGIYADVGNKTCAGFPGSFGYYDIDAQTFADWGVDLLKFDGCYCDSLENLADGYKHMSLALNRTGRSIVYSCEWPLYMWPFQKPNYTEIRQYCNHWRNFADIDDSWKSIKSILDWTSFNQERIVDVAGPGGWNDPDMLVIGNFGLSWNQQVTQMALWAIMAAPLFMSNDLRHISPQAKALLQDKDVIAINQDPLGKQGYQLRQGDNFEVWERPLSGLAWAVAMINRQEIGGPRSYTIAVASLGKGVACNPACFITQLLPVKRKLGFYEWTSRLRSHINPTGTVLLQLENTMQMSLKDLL
# miR-21 reporter – raises the signal of a miR-21 reporter | HeLa miR-21 FLuc reporter, luciferase, 48 h | Potency, µM (highest dose often 38.3 µM), inactives show at the top dose reporter change, positive = more light | 340,000 tested, under 10 active | AID 2288; active = well fitted rising curve with a large enough effect; inconclusive = small, poorly fitted or top-dose-only effect; inactive = no such curve, though single readings can be large or run the other way;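 also: % of control where 0% means no effect; miR-21 action dims this reporter so a rising signal means less miR-21 action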
#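 HeLa cells endogenously expressing miR-21, stably carrying CMV-driven firefly luciferase with a downstream miR-21 binding site, 2000 cells/well. Titrations up to approximately 40 uM, 48 hours; luciferase luminescence read.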
# Rango-impB inh – Rango-importin beta binding inhibition. Q14974. Rango CFP/YFP FRET sensor + importin beta, 45 min. Potency, µM (titrated, usually from 92.2 µM), for inactives: at the top dose inhibition of complex formation. actives 0.031% (n = 340,000). AID 540263; active = rising FRET ratio curve, often small or poorly fitted; inconclusive = mostly compound fluorescence or quenching in the first reads; inactive = flat curves in all reads;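 also: potency is read from the fitted curve at half-maximal effect; 0% = DMSO wells and 100% = buffer wells lacking importin beta; nearly all actives have a fitted effect of over 15% in size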
#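 FRET biosensor Rango (snurportin 1 IBB between N-terminal EYFP and C-terminal Cerulean), 50 nM in PBS/1 mM DTT/0.02% Tween-20/0.1% BSA, preincubated 5 min RT with compound; 0.125 microM importin beta added, 45 min RT, CFP/YFP FRET ratio read.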
# Rango dissoc inh – inhibition of RanGTP-driven Rango-importin beta dissociation. Biochemical FRET Rango-importin beta, RanGTP-induced dissociation. Potency, µM (series often up to 46.1 µM), for the others: at the top dose activity change, negative = inhibition. actives 0.071% (n = 340,000); active means falling FRET ratio curve, often poorly fitted, with flat reads before Ran was added; inconclusive means other falling curves, or compound fluorescence or quenching; inactive means flat or rising ratio curve;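 also: potency is read from the fitted curve at half-maximal effect; % of control where 0% means no effect; nearly all actives have a fitted effect of over 45% in size; -100% = wells without RanGTP and RCC1; the record marks most hits as doubtful in a second field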
#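 Quantitative HTS using a FRET biosensor: 0.1 uM Rango, 0.25 uM importin beta, 0.6 uM Ran, 2 mM GTP, 0.2 uM RCC1 final, PBS with DTT, Tween-20 and BSA. Post-read taken 45 min after Ran addition.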
# Active calls of the source: *; ? = inconclusive; / = not tested or not shown; & = joins results of further samples.
# Under each structure – GLA inh pH 4.5	miR-21 reporter	Rango-impB inh	Rango dissoc inh
CCCCN1CC(COc2ccccc2)OC1=O (stereo not given)
→ 5.2	-17.6%	0.5%	3.6%
COc1ccc(-c2n[nH]c(C)c2-c2cnn(-c3ccccc3)c2)c(O)c1
→ 3.2	-9.6%	-7.6%	0.0%
COc1cccc(C(=O)N2C(C(=O)O)CSC2c2ccccc2Cl)c1 (stereo not given)
→ -0.2	0.8%	0.6%	-0.4%
O=C(NCC(c1ccco1)N1CCCCC1)c1ccc([N+](=O)[O-])s1 (stereo not given)
→ /	/	0.1%	-14.1%
Cc1cccc(N2CCN(C(c3ccccc3)c3nnnn3C(C)(C)C)CC2)c1C (stereo not given)
→ -9.3	-7.6%	4.0%	1.6%
CCOC(=O)C1CCN(Cc2nc3ccc([N+](=O)[O-])cc3c(=O)n2-c2ccc(OC)cc2OC)CC1
→ 4.5	-8.2%	-1.2%	-4.3%
COc1ccc(NC(=S)Nc2cc(C)cc(C)n2)cc1OC
→ 0.4	-27.9%	-0.3%	7.5%
COC(=O)CN(C(=S)Nc1ccc(F)cc1)C1CC(=O)N(c2ccccc2)C1=O (stereo not given)
→ -10.2	0.7%	1.3%	0.3%
CSc1nc(Cl)c(Cc2ccc(OCC(C)C)cc2)c(N2CCOCC2)n1
→ -6.2	-0.2%	-1.1%	-1.9%
COc1ccc2sc(-c3ccc(N(C)C)cc3)c(C#CCO)c2c1
→ /	/	?	?
Cc1c(C#N)c(O)[nH]c(=O)c1N=Nc1ccc(Br)cc1C(=O)O
→ /	0.6%	-1.7%	-6.2%
NC(=O)CC1Nc2cccc3cccc(c23)NC1=O (stereo not given)
→ -11.3	3.2%	-0.3%	-8.7%
O=C1NCCc2c1[nH]c1ccc([N+](=O)[O-])cc21
→ -20.0	5.4%	0.3%	-10.3%
Cc1ccc(S(=O)(=O)N(C)c2ccc(C(=O)NCC(c3cccs3)N3CCOCC3)cc2)cc1 (stereo not given)
→ /	-2.0%	-0.3%	-0.2%
CSc1nc(N)nc(SCC(=O)Nc2ccc(Cl)cc2)c1C#N
→ 1.6	9.2%	4.1%	15.0%
CCOC(=O)c1ccc([N+](=O)[O-])cc1NC(C)=O
→ -2.2	-2.3%	?	19.7%
CCc1ccccc1N(CC(=O)N1CCCCC1)S(=O)(=O)c1ccccc1
→ /	-2.1%	-1.4%	-4.4%
Cc1cccc(N(CC(=O)N2CCOCC2)S(C)(=O)=O)c1C
→ 8.8	-17.9%	0.9%	-10.3%
COc1cc2c(cc1OC)C(c1ccsc1)CC(=O)N2 (stereo not given)
→ 2.4	-9.6%	3.2%	-20.3%
O=C(COc1ccc(S(=O)(=O)N2CCCC2)cc1Cl)N1CCN(c2ccccc2)CC1
→ -17.6	19.1%	-0.4%	11.3%
Cc1cc(/N=C/C=C2\N(C)c3ccccc3C2(C)C)n(CCC#N)n1
→ -18.8	17.7%	?	-12.5%
C=CCNC(=O)c1onc(CSc2cccc(OCC)c2)c1C(=O)O
→ -10.5	1.6%	0.5%	4.3%
CC1CCCN(CCCNC(=O)CN2C(=O)CSc3ccc(S(=O)(=O)N4CCOCC4)cc32)C1 (stereo not given)
→ /	0.1%&0.6%	-1.8%	-12.1%
CC(=O)c1ccc(N2CCN(S(=O)(=O)c3ccc4c(c3)CC(=O)N4)CC2)cc1
→ /	1.2%	1.1%	-14.7%
Cc1ccc2c(c1)CCCN2CC(=O)Nc1cc(S(=O)(=O)N2CCCC2)ccc1Cl
→ /	/	1.3%	3.8%
CC(=O)NCCNC(=O)CCNC(=O)c1ccc(Cl)cc1
→ 6.7	-4.9%	-0.5%	-11.0%
CCN(CC)CCCNC(=O)CCC(=O)Nc1ccc2nc(N3CCC(C)CC3)cc(C)c2c1
→ ?	-49.3%	?	1.1%
COc1ccccc1OCCNC(=O)C1CC(=O)N(Cc2ccc(C)cc2)C1 (stereo not given)
→ /	/	-8.0%	-9.8%
Cc1ccc(NC(=O)CSc2nnc(-c3ccncc3)n2C)cc1C
→ -20.6	-7.3%	-1.9%	-2.4%
Cc1cc(C)c(OCCOCCN2CCCC2)c(C)c1
→ /	/	-1.0%	-5.1%
COc1ccc(-c2oc(NC(=O)CSc3nncn3C)c(C#N)c2-c2ccc(OC)cc2)cc1
→ 0.7	-2.6%	6.5%	14.5%
Cc1ccccc1NS(=O)(=O)c1ccc(Cl)cc1
→ -22.1	-0.1%	-2.4%	6.3%
O=C(CN1C(=O)NC(c2ccccc2)(c2ccccc2)C1=O)NC1CCCC1
→ /	/	1.4%	29.8%
CSCCC(NC(N)=O)C(=O)Nc1ccc(F)c(Cl)c1 (stereo not given)
→ 5.1	0.1%	0.1%	11.5%
CC(C)(C)NC(=O)CN(C(=O)C(=O)Nc1ccc2c(c1)OCCO2)C1CC1
→ /	-0.7%	-1.3%	3.6%
C/C=C(\C)CN1CCCC(N(C)CCc2ccc(OC)c(OC)c2)C1 (stereo not given)
→ /	1.1%	0.1%	-3.4%
CCCn1nc(C(=O)OCC(=O)Nc2cccc(OC)c2)c2ccccc2c1=O
→ -18.6	0.0%	3.2%	-6.6%
CC(C)(C)OC(=O)N1CCC(C(=O)N[C@H](C(=O)O)c2ccccc2)(c2ccccc2)CC1
→ /	-1.1%	5.0%	14.2%
COc1ccccc1C1CC(=O)NC(C)=C1C(=O)OCC1CCCO1 (stereo not given)
→ 6.4	-1.4%	0.1%	12.4%
O=C(CC1Nc2ccccc2NC1=O)Nc1ccccc1NC(=O)CC1Nc2ccccc2NC1=O (stereo not given)
→ -8.4	-21.4%	/	/
COc1ccc(CCN(C)C(=O)CSc2nnnn2C)cc1OC
→ -1.6	-2.2%	-2.3%	-2.3%
C/C(=N\NC(=O)c1c(Br)c(C)nn1C)c1ccc(NC(=O)c2ccoc2C)cc1
→ -0.7	-39.9%	-3.7%	-8.8%
CCCOc1ccc(C(=O)CCC(=O)Nc2ccc(N3CCN(C)CC3)cc2)cc1
→ /	/	0.1%	8.5%
Nn1c(Cc2cccc3ccccc23)nnc1SCC(=O)NC1CCS(=O)(=O)C1 (stereo not given)
→ -2.4	-2.2%	0.0%	1.4%
N/C(=N\O)c1ccc(Oc2ccccc2Cl)c([N+](=O)[O-])c1
→ -25.6	-19.7%	2.8%	3.6%
COCCN(CCOC)C(=O)C1CCCN(S(=O)(=O)c2ccc(NC(=O)OC)cc2)C1 (stereo not given)
→ 2.4	1.9%	-6.3%	16.4%
Brc1ccc(OCCOCCN2CCOCC2)cc1
→ -1.6	-8.1%	-4.1%	1.7%
CCOC(=O)Cc1c(C)nc2cc(-c3ccc(C(C)(C)C)cc3)[nH]n2c1=O
→ 2.8	-13.3%	2.2%	7.3%
Cc1cc(C)cc(C(=O)Oc2cc(C)[nH]c(=O)c2[N+](=O)[O-])c1
→ /	0.2%	0.0%	-19.8%
CCOC(=O)N1CCC(NC(=O)C2CCCCN2S(=O)(=O)c2ccc(F)cc2)CC1 (stereo not given)
→ 3.6	-0.3%	4.8%	0.5%

# (listing goes on)
# Under each structure – GLA inh pH 4.5	miR-21 reporter	Rango-impB inh	Rango dissoc inh
CC(C)CN(C(=O)CCC(=O)OC(C)C(=O)Nc1cccc(C#N)c1)c1c(N)n(CC(C)C)c(=O)[nH]c1=O (stereo not given)
→ /	/	5.9%	-9.1%
NC(=S)NC(c1ccccc1)c1ccncc1 (stereo not given)
→ /	/	-0.1%	9.4%
NNc1ccc(Cl)nn1
→ 3.2	-35.2%	0.8%	1.0%
O=C(Nc1nnc(-c2cccc(F)c2)s1)Nc1ccccc1F
→ 19.5	-13.0%	0.5%	-4.6%
CC(C)(CNC(=O)CNC(=O)C1CCCCC1)N1CCOCC1
→ /	/	?	-5.3%
Cc1ccc(C(=O)NNC(=O)COc2ccc(Cl)cc2C)o1
→ /	/	3.8%	-1.6%
Cc1ccc(S(=O)(=O)CCC(=O)Nc2nnc(-c3ccco3)o2)cc1
→ /	/	3.7%	-8.5%
Cc1nnc(SCc2cccc(Oc3ccccc3)c2)n1N
→ 6.2	-16.9%	-0.3%	6.8%
CN(C)S(=O)(=O)c1ccc(C(=O)Nc2cccnc2)cc1
→ 4.6	0.0%	5.3%	20.8%
COc1ccc(/C=N/NC(=O)c2ccoc2C)cc1CN1CCN(c2ccc(F)cc2)CC1
→ /	-10.0%	0.7%	-16.7%
COc1cc2c(cc1OC)-c1nnnn1C(C)(C)C2
→ -5.9	-16.4%	0.2%	2.0%
COc1ccc(S(=O)(=O)Nc2ccc3c(c2)C(=O)N([C@@H](C)CO)C[C@H](C)[C@H](CN(C)S(=O)(=O)c2ccc(F)cc2)O3)cc1
→ /	/	-1.1%	-6.1%
CN(N)c1ccc2c(C(F)(F)F)cc(C(F)(F)F)nc2n1
→ 1.6	-0.3%	?	0.1%
CCOc1cc2[nH]c(=S)n(Cc3ccc(C(=O)N4CCN(C)CC4)cc3)c(=O)c2cc1OCC
→ /	-1.9%	0.2%	-2.9%
CCCNc1nc(C)cc(-c2cc(-c3ccc(Cl)cc3)on2)n1
→ 3.6	-4.5%	3.6%	23.1%
COc1nc(-c2ccccc2Cl)ccc1C#N
→ 1.1	-18.6%	-0.4%	0.2%
CCOC(=O)COc1nc(C)c(Br)c(OC)n1
→ -0.5	-3.3%	4.7%	-0.7%
COc1cccc(NC(=O)c2sc3nc4n(c(=O)c3c2C)CCC4)c1
→ /	-45.2%&12.1%	1.3%	-9.5%
CS(=O)(=O)N(CC(=O)N1CCCCC1)Cc1ccccc1
→ /	0.6%	3.9%	-0.4%
COc1ccc(NC(=O)Nc2ccc(C(=O)N3CCOCC3)cc2)cc1OC
→ /	2.6%	-0.2%	0.5%
Cc1cc2cc(CN(Cc3ccc4c(c3)OCO4)C(=O)c3ccco3)c(=O)[nH]c2cc1C
→ -9.6	14.9%	4.9%	10.6%
CCN(CC)CCC(c1cc(OC)c(OC)c(OC)c1)c1c(OC)cc(OC)c2c(-c3ccccc3)cc(=O)oc12 (stereo not given)
→ -9.3	16.0%	-1.8%	-2.6%
COC(=O)COc1cccc2c(=O)n(CC(=O)N3CCCCC3)ccc12
→ 8.0	1.2%	-3.8%	3.6%
COc1cc(OC)c(C(=O)Nc2cc(S(=O)(=O)N3CCOCC3)ccc2N2CCN(C)CC2)cc1OC
→ /	/	-5.2%	-9.7%
Cc1ccc(S(=O)(=O)CCSc2n[nH]c(=O)n2-c2ccccc2)cc1
→ 0.8	10.9%	1.1%	9.7%
Cc1c(NC(=O)/C=C/C(=O)O)cccc1[N+](=O)[O-]
→ -9.3	-2.2%	-2.7%	1.9%
O=C(O)Cc1ccc(NC(=S)Nc2cccc(Cl)c2Cl)cc1
→ -9.7	-1.0%	0.6%	-5.5%
CCOc1ccc(C2c3c(oc4ccccc4c3=O)C(=O)N2CCCN2CCOCC2)cc1 (stereo not given)
→ -7.5	-27.9%	3.6%	-6.6%
CCN(C[C@H]1N[C@@](Cc2ccccc2)(C(=O)OC)[C@H]2C(=O)N(Cc3ccccc3)C(=O)[C@@H]12)S(=O)(=O)c1ccccc1
→ /	/	-0.2%	-8.9%
CCOc1ccc(/C(C)=N/NC(=O)c2nnn(-c3nonc3N)c2-c2cccs2)cc1
→ /	-0.3%	2.9%	-3.0%
Cc1ccc(S(=O)(=O)Cc2ccc(C(=O)N3CCN(c4cccc(C)c4C)CC3)o2)cc1
→ /	?	-1.1%	0.3%
COCCN1C(=O)C(=O)/C(=C(/O)c2ccc(OC(C)C)cc2)C1c1cccnc1 (stereo not given)
→ 0.1	0.5%	0.7%	13.4%
CN(C)CCNc1nc2sc3c(c2c(=O)n1Cc1ccccc1)CCCCC3
→ /	-10.3%	0.5%	-6.6%
Cc1ccc2nc(SCC(=O)NC3CCCC3)nc(=O)n2c1
→ /	/	-0.1%	1.9%
CSc1nc2n(n1)C(c1cccc(F)c1)C(C(=O)Nc1ccc(C)cc1C)=C(C)N2 (stereo not given)
→ -21.7	1.9%	0.0%	1.8%
CC1(C)Cc2cccc(OCC(=O)N3CCN(S(=O)(=O)c4ccccc4)CC3)c2O1
→ 5.6	-11.7%	1.2%	-10.7%

# An excerpt; count on the stated rates, not on these rows.
